Screening results from PubChem BioAssay.
ClpP mod = qHTS Assay for Activators of ClpP. ATP-dependent Clp protease proteolytic subunit (Bacillus subtilis (strain 168)), P80244. purified B. subtilis ClpP, FRET peptide cleavage, 20 min. Potency, µM (titrated, usually from 57.5 µM), for the others: at the top dose activity change, negative = active. 340,000 tested, 1.9% active. AID 651965, 2013; active = well fitted falling curve with a large enough effect; inconclusive = small, poorly fitted or top-dose-only effect; inactive = no such curve, though single readings can be large or run the other way; further: potency means the concentration at half of the fitted maximal effect; the source files actives as falling curves though it sought activators and does not explain the sign; nearly all actives have a fitted effect of over 65% in size; many hits overshoot -100%
Target sequence (P80244 whole entry, looked up): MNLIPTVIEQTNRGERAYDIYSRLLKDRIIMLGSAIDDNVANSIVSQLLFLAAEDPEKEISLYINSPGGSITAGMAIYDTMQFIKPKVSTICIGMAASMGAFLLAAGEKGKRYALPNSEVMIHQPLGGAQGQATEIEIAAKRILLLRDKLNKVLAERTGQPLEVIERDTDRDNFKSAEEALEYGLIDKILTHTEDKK
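FRET quenching reversal measured ClpP activation: 10 microg/mL B. subtilis ClpP at pH 8 with the FRET-FV decapeptide, read at 430 nm after 320 nm excitation. The 20-min minus 0-min signal was scaled between DMSO/no-enzyme wells and ADEP (5.8 microM final).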
Sfp inh = Sfp phosphopantetheinyl transferase inhibition; Biochemical Sfp PPTase activity, qHTS; Potency, µM, without a hit: max response, negative = inhibition, usual class: inhibitors; AID 1490; Q9F4F7; 310,000 tested, 3.5% active; active means well fitted inhibition curve with a large enough effect; inconclusive means small, poorly fitted or top-dose-only effect, or another doubt; inactive means no such curve, though single readings can be large or run the other way;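 further: the enzyme is Sfp with the accession as filed and its product quenches rhodamine fluorescence; potency means the concentration at half of the fitted maximal effect; 0% = enzyme reaction without inhibitor and -100% = no enzyme wells; top concentration of the series not given in the record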
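Compounds were incubated with enzyme (final 15 nM) for 15 min at room temperature before substrate addition started the reaction. Fluorescence at 525 nm excitation, 598 nm emission was recorded immediately and after 30 minutes.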
Menin-MLL FL inh = displaces fluorescein MLL peptide from human menin | Fluorescence polarization, fluorescein-MLL peptide displacement from menin | FP activity change, % at 61.4 µM | 290,000 tested, under 10 active | AID 1766; inconclusive = falling polarisation curve, or a change in total fluorescence; inactive = total fluorescence flat and polarisation flat or rising; no compound was filed as active; the % refers to the polarisation; negative = inhibition;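 further: % of control where 0% means no effect; inhibitors lower the polarisation; unlabelled MLL peptide was the positive control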
TRPV1 potentiator = human TRPV1 potentiation; potentiation, % at 8.33 µM; Q8NER1; AID 540277; 320,000 tested, 0.02% active; TRPV1-expressing cells, Fluo-8 calcium influx, capsaicin EC20 potentiation; host cell line not named in the record; control for the full effect not named in the record; active means potentiation above 80%; inconclusive means 30% to 80%; inactive means below 30%; further: 0% is about no effect
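TRPV1-expressing cells were cultured overnight at 35.5C and loaded with Fluo-8 calcium dye for 40 to 90 min at room temperature. After a 10 s baseline, compound was added and calcium influx was read kinetically for 3 min (ex 480/em 520 nm).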
gsp ag = gsp mutant agonism; gsp mutant cells, cAMP HTRF, 30 min; control for the full effect not named in the record; Potency, µM (series often up to 76.9 µM), inactives show at the highest dose activation (cAMP increase), hits mostly activators; 340,000 tested, 0.13% active; AID 624287; active = well fitted activation curve with a large enough effect; inconclusive = small, poorly fitted or top-dose-only effect, or another doubt; inactive = no such curve, though single readings can be large or run the other way; cell line not stated here;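 further: phosphodiesterase inhibitor Ro 20-1724 added with compounds to block cAMP breakdown; potency means the concentration at half of the fitted maximal effect; nearly all actives have a fitted effect of over 60% in size; about a fifth of the inactives were tested at one dose only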
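Cells stably selected in G418 were plated at 2000/well, grown 16-24 hr, then given compounds in DMSO with the PDE inhibitor […] (300 uM solution added) for 30 min at 37C; cAMP was read by HTRF.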
TRPML1 inh = human mucolipin-1 channel inhibition; AID 624415; TRPML1-inducible cells, Ca2+ dye fluorescence, FDSS; active compounds read low; inhibition of EC80 agonist-evoked calcium signal; activity change, negative = inhibition, % (test concentration not listed); 390,000 tested, 0.02% active; in the data active means activity change below about -50%; inconclusive means about -30% to -50%; inactive means above about -30%;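 further: stimulus is agonist 54-4 at its EC80 concentration; on the % scale 0 is the no-effect control and ±100 the full control effect; compound concentration not given in the record; the text of the record puts the active cut at -80%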
Target sequence (Q9GZU1 whole entry, looked up): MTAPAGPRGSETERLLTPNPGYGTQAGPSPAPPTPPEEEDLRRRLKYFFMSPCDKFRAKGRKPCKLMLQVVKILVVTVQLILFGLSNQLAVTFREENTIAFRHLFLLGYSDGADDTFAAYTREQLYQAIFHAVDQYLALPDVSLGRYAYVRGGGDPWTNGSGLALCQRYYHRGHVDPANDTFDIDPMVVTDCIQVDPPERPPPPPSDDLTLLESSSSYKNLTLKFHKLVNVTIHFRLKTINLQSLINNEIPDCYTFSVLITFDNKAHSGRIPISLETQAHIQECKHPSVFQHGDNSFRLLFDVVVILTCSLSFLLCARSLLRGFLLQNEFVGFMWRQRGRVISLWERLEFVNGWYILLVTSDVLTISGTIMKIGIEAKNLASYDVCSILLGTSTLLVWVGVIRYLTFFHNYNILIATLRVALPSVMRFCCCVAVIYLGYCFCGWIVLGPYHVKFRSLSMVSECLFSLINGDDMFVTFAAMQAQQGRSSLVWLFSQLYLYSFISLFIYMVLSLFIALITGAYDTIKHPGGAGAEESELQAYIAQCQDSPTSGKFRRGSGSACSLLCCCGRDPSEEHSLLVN
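Tet-induced TRPML1-DL cells loaded with Ca8 no-wash calcium dye were read kinetically on FDSS. Compound addition was followed by EC80 agonist 54-4 (4 uM final); inhibition was read over 110 s.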
gsp antagonist = antagonists of gsp mutant (McCune-Albright syndrome) | gsp-mutant cells, cAMP HTRF, 30 min; control for the full effect not named in the record | Potency, µM (doses to about 76.9 µM), without a hit: at the top dose activity change, negative = inhibition, hits mostly inhibitors | 340,000 tested, 0.4% active; active = falling curve of any shape with a large fitted effect; inconclusive = falling curve, mostly with a smaller effect; inactive = flat or rising curve; cell line not stated here;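 further: intracellular cAMP measured with PDE inhibitor Ro 20-1724 present during compound exposure; potency means the concentration at half of the fitted maximal effect; on the % scale 0 is the no-effect control and ±100 the full control effect; nearly all actives have a fitted effect of over 65% in size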
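HTRF cAMP measurement after 30 min RT detection following 30 min, 37C compound treatment alongside […] (added as 300 uM solution) in G418-selected cells seeded at 2000/well and grown 16–24 h.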
An asterisk follows results filed as active; ? = inconclusive; nt = no result given; [ ] = another dose, or the depositor's remark.

no. | canonical_smiles | ClpP mod | Sfp inh | Menin-MLL FL inh | TRPV1 potentiator | gsp ag | TRPML1 inh | gsp antagonist
1 | CN(Cc1ccccc1)C(=O)c1[nH]cnc1C(=O)Nc1ccon1 | -2.5% | nt | nt | -3 | -20% | -10 | 4%
2 | CC(=O)Nc1sc2c(c1C(c1ccccn1)N1CCCC1)CCCC2 (stereo not drawn) | 1.7% | 45µM* | ? | 28 | -20%[15.4 µM] | 3 | 7%
3 | CC(/C=N/NC(=O)c1nn(C)c(C)c1Br)=C\c1ccccc1 | -1.6% | -1% | 6.6 | -11 | 19% | 8 | 1%
4 | CN1CCN(C(=O)Nc2cccc3ccccc23)CC1 | 16µM* | 9% | 3.4 | 0 | -9% | -13 | -4%
5 | Cc1ccc(NS(=O)(=O)c2cccc3cccnc23)c(Br)c1 | nt | 5% | -14 | 1 | 7% | 8 | ?
6 | COCCn1c(SCc2csc(-c3ccccc3)n2)nc2ccccc21 | 0.1% | 1% | -4.7 | ? | -22% | 6 | -19%
7 | O=C(Nc1nc(-c2ccccn2)cs1)c1ccc(Cl)s1 | -1.1% | -6% | -0.4 | nt | -9% | -6 | -4%
8 | O=C(NN=Cc1ccc(F)cc1)C1CC1 | nt | nt | nt | nt | 18% | 22 | -1%
9 | Cc1cccnc1NC(=O)/C=C/c1ccc2c(c1)OCO2 | ? | 2% | 0.5 | -16 | 28% | -3 | 13%
10 | Cc1nn(-c2ccccc2)c(Cl)c1C(=O)OCC(=O)NCCc1ccccc1 | nt | 1% | nt | -11 | 4%[15.4 µM] | 15 | -8%
11 | Cc1ccccc1NC(=O)c1ccc(F)c(S(=O)(=O)NCC2CCCO2)c1 (stereo not drawn) | -0.6% | 13% | -3.3 | 2 | ? | 19 | 6%
12 | COc1ccc(C)cc1S(=O)(=O)N1CCC(C(=O)NC2CCCC2)CC1 | -2.5% | -5% | nt | 2 | -33%[inhibitor] | 24 | 2%
13 | CCOc1ccc(CNC(=O)CCS(=O)(=O)Cc2ccccc2C)cc1OC | 1.9% | 14% | -0.7 | 11 | -1% | -10 | 7%
14 | CC12CCC(C(=O)NNC(=O)c3ccccc3)(OC1=O)C2(C)C (stereo not drawn) | 0.9% | 17% | 3.1 | 7 | 27% | 6 | -8%
15 | CN(C(=O)Cc1c(C(=O)O)n(C)c2ccccc12)c1cccc(C(F)(F)F)c1 | -0.4% | 19% | 2.8 | 1 | 17%[15.4 µM] | 7 | -24%
16 | O=C(CSc1nnc2c3c4c(sc3ncn12)CCCC4)NCc1ccco1 | -1.4% | 3% | 8.2 | -2 | 6% | -18 | 8%
17 | CN1CCC(=NNC(=O)C(=O)Nc2ccc(F)cc2)CC1 | nt | 6% | 2.0 | -2 | -3%[15.4 µM] | -5 | 9%
18 | Cc1noc(C)c1NC(=O)Nc1ccc2c(c1)C(=O)N([C@H](C)CO)C[C@H](C)[C@@H](CN(C)S(=O)(=O)c1cn(C)cn1)O2 | 0.9% | nt | nt | nt | nt | 21 | 9%
19 | COc1ccccc1CNC(=O)COC(=O)c1c[nH]c2ccccc12 | nt | nt | nt | 7 | 2%[15.4 µM] | 7 | -16%
20 | CCC(CC)C(=O)Nc1cc(C(=O)NCCc2ccccc2)ccc1Cl | -0.5% | 20% | -0.1 | -10 | 4% | 22 | 6%
21 | Cc1ccc(NC(=S)NNC(=O)CSc2nc3ccccc3c(=O)n2-c2ccc(C)cc2)cc1 | -7.1% | 7% | 3.9 | 20 | -57%[inhibitor] | -2 | -12%
22 | Cc1ccc2nc(-c3ccccc3)cn2c1 | 14µM* | 2% | -0.2 | -4 | -11% | -14 | 4%
23 | CCOc1ccc(NCc2nnc(SCC(=O)Nc3cc(C)on3)n2-c2ccc(OC)cc2)cc1 | 3.8% | 19% | 3.7 | 18 | 8% | 1 | 5%
24 | COc1ccc(Cn2c(-c3ccc(Cl)cc3)c[n+]3ccccc23)cc1 | nt | 1% | 5.1 | -3 | -15% | 0 | 1%
25 | O=c1oc2c(CN3CCCCC3)c(O)ccc2cc1-c1nc2ccccc2[nH]1 | -1.7% | 9% | ? | -33 | -23% | 11 | 5%
26 | COC(=O)c1ccc(NC(=O)c2ccc(C)cc2)o1 | -4.0% | -19% | 0.6 | 4 | -18% | 12 | 6%[15.4 µM]
27 | CCN(CC(=O)NC1CCS(=O)(=O)C1)S(=O)(=O)c1ccc(C)cc1C (stereo not drawn) | 1.2% | 6% | 1.0 | -9 | -37% | 5 | 11%
28 | Cc1c(NC(=S)NC(=O)c2ccco2)c(=O)n(-c2ccccc2)n1C | -1.2% | -14% | 5.7 | -7 | -5% | -17 | 4%
29 | COc1ccc(NC(=O)CCCC(=O)NCCc2ccc(OC)c(OC)c2)cc1 | -2.5% | 14% | -3.0 | ? | 18% | -5 | 6%
30 | Cc1ccccc1N(CC(=O)N/N=C/c1ccc(F)cc1)C(=O)c1ccccc1 | 7.3% | -15% | -0.3 | -8 | -7% | 18 | -9%
31 | O=C(CNC(=O)c1cccc(Cl)c1)N/N=C/c1cccnc1 | 0.9% | 25% | 6.3 | 21 | -24% | -16 | 5%
32 | CCCNC(=O)CS(=O)(=O)Cc1nc(-c2cccc(OC)c2)oc1C | -18% | 12% | -1.1 | 27 | 35% | -6 | 3%
33 | O=C(CSc1nnc2ccc(-c3cccnc3)nn12)Nc1ccc(F)cc1F | -4.3% | -18% | 3.8 | 12 | ? | 6 | -19%
34 | CC(C)(C)c1ccc(/C=C/C(=O)N2CCN(c3ncccn3)CC2)cc1 | -1.7% | -14% | 2.1 | -43 | -8% | -11 | -5%
35 | Cn1c(-c2ccccc2)c[n+]2c1-c1ccccc1C2 | 4.4% | 5% | 3.4 | 0 | -66%[inhibitor] | -8 | 13%
36 | COc1ccc(S(=O)(=O)NCC(c2ccc(C)cc2)N2CCN(C)CC2)cc1 (stereo not drawn) | -1.0% | nt | nt | ? | -5% | -4 | 7%
37 | O=[N+]([O-])c1cc([N+](=O)[O-])c2nonc2c1Nc1ccc(O)cc1 | -1.2% | ? | -26 | 22 | 0% | -7 | -12%
38 | O=C(Nc1cccnc1)Nc1ccccc1Cl | -0.8% | -16% | 2.0 | -25 | 4% | -5 | -9%
39 | COc1ccc(/C=N\NC(=O)c2ccccc2)cc1COc1ccccc1 | ? | 7% | 0.4 | -13 | 10%[15.4 µM] | 16 | ?
40 | CCOc1ccccc1NC(=O)CSC1=NN2CCCC(=O)N=C2S1 | nt | 22% | -0.2 | 12 | 1% | -14 | ?
41 | CCC(=O)N/N=C(\C)CC(=O)Nc1ccccc1-c1ccccc1 | 2.0% | -7% | 0.0 | -6 | -2% | -7 | 8%
42 | O=S(=O)(c1cccc(NC(=S)Nc2ccc(Br)cc2Cl)c1)N1CCOCC1 | -13% | 45µM* | 7.1 | -6 | 0% | -10 | 8%
43 | O=C(CSc1nc2ccccc2c(=O)n1-c1ccccc1)N1CCc2ccccc21 | -3.1% | 7% | 0.7 | -16 | -16% | -11 | 8%
44 | COc1cc(OC)cc(N(C(=O)C2COc3ccccc3O2)C(C(=O)NC2CCCCC2)c2ccc(O)cc2)c1 (stereo not drawn) | ? | 16% | 2.9 | -1 | 33% | -7 | -18%
45 | Cc1c(Cc2ccc3c(c2)OCO3)sc(NC(=O)C(C)(C)C)c1C#N | -4.1% | 6% | -1.8 | 27 | -33%[inhibitor] | -11 | 1%
46 | CCCCN(CC)C(=O)c1n[nH]c(=O)c2ccccc12 | -2.2% | -2% | 0.8 | -2 | -5% | -4 | 6%
47 | Cc1ccc(NC(=O)c2cccnc2)cc1C | nt | 13% | -2.5 | -36 | -8% | 18 | 12%
48 | CN(c1ccc(Cl)cc1)S(=O)(=O)c1nnc(NC(=O)C(C)(C)C)s1 | -2.3% | 17% | 2.8 | 8 | -26% | 15 | -14%
49 | COc1cc(OC)c(OC)cc1/C=C1\Oc2cc(OCC(=O)N3Cc4ccccc4C[C@H]3C(=O)O)ccc2C1=O | -2.7% | 19% | ? | -8 | ? | -1 | 5%
50 | COc1ccc(-n2nc(C(=O)NCC(=O)N3CCN(c4ccc(F)cc4)CC3)c3ccccc3c2=O)c(OC)c1 | -1.8% | 12% | 2.2 | 3 | -38%[inhibitor] | -5 | -21%

Carrying on.
no. | canonical_smiles | ClpP mod | Sfp inh | Menin-MLL FL inh | TRPV1 potentiator | gsp ag | TRPML1 inh | gsp antagonist
51 | C=CCSc1nnc2c(n1)OC(c1ccccn1)N(C(C)=O)c1ccccc1-2 (stereo not drawn) | 1.5% | 12% | 3.9 | -12 | -30% | -7 | 0%
52 | COc1ccc(N2CCN(C(CNC(=O)OCc3ccccc3)c3ccco3)CC2)cc1 (stereo not drawn) | 1.9% | -9% | 9.0 | -9 | -13%[15.4 µM] | 8 | 8%
53 | O=C(CSc1nnc(-c2ccc(O)cc2)n1Cc1ccco1)c1cccs1 | 1.0% | ? | 6.0 | 4 | -5% | 3 | ?
54 | Cc1ccc(SCCCn2cncn2)cc1 | -0.9% | 4% | 2.4 | 5 | -2% | -10 | -3%
55 | CCn1c(SCC(=O)Nc2ccc3c(c2)OCCO3)nnc1-c1ccco1 | -1.0% | 10% | 1.2 | 7 | -45%[inhibitor] | 2 | 5%
56 | COc1ccc(N(CN2C(=O)C3CCCCC3C2=O)C(=O)c2ccco2)cc1 (stereo not drawn) | ? | 14% | -1.2 | 1 | 3%[15.4 µM] | -5 | -1%
57 | Cc1ccccc1CSc1nc2[nH]ncc2c(=O)[nH]1 | -32% | 25% | 0.8 | 9 | 4% | -14 | 11%
58 | Cc1ccc(C2(C)NC(=O)N(CC(=O)NNC(=O)c3ccccc3F)C2=O)cc1 (stereo not drawn) | -1.8% | nt | nt | -13 | -106%[inhibitor] | 11 | 11%
59 | COc1cc(C(=O)NC(CCSC)C(=O)OCc2cc([N+](=O)[O-])cc3c2OCOC3)cc(OC)c1OC (stereo not drawn) | nt | 4% | 0.5 | 8 | 9% | -11 | -6%
60 | O=C(CCl)Nc1c(C(=O)Nc2ccc3c(c2)OCCO3)oc2ccccc12 | -3.7% | 2% | nt | 0 | -15% | 5 | ?
